Assay outcomes from PubChem BioAssay.
StopGo RLuc = FMDV 2A StopGo reporter, Renilla signal; HEK cells with a luciferase reporter of 2A StopGo recoding; Potency, µM (top dose mostly 57.5 µM), without a hit: at the highest dose signal change, negative = less light; hit rate 0.32% among 120,000; AID 1745857; active means well fitted falling curve with a large enough effect; inconclusive means small, poorly fitted or top-dose-only effect; inactive means no such curve, though single readings can be large or run the other way; note: nearly all actives have a fitted effect of over 55% in size; overnight with compound
2A firefly = lowers the firefly signal of an FMDV 2A StopGo reporter; HEK cells with a luciferase reporter of 2A StopGo recoding; Potency, µM (highest dose often 57.5 µM), without a hit: top-dose signal change, negative = less light; hit rate 0.23% among 120,000; AID 1745856; active = well fitted falling curve with a large enough effect; inconclusive = small, poorly fitted or top-dose-only effect; inactive = no such curve, though single readings can be large or run the other way; note: nearly all actives have a fitted effect of over 60% in size; overnight with compound
Numbers without * were called inactive; ? = inconclusive; [ ] = remark or other dose. % is set by controls: 0 for no effect and ±100 for the full control effect; potency is the fitted concentration of half-maximal effect. Not all compounds are listed (hit frequency here may not be typical).

structure	StopGo RLuc	2A firefly
Cc1c(Cl)cccc1Nc1nn2c(=O)c3ccc(C(=O)NCCC4=CCCCC4)cc3nc2s1	-10%	42%[activator]
COc1ccc(CNC(=O)C(=O)NCC(c2cccnc2)N2CCN(c3ccccc3F)CC2)cc1 (stereo not given)	?	?
CC(NC(=O)c1ccc2c(c1)N(Cc1ccc(Cl)cc1)C(=O)c1ccccc1S2(=O)=O)c1ccccc1 (stereo not given)	43%[activator]	-21%
O=S(=O)(/C=C/c1ccccc1)N1C=Cc2ccccc2C1c1c[nH]c2ccccc12 (stereo not given)	263%[activator]	64%[activator]
Cc1ccc(OCCNC(=O)c2ccc3c(c2)NC(=O)CS3)cc1	?	?
Cc1ccccc1OCc1nnc(SCc2cc(=O)c3ccccc3[nH]2)n1C	?	?
Fc1ccc(-n2ncc3c(N4CCCCCC4)ncnc32)cc1	-5%	111%[activator]
CC1(c2ccccc2)NC(=O)N(Cc2ncc(-c3ccccc3)o2)C1=O (stereo not given)	9%	13%
CCc1cc(CC)n(-c2nc3c(c(=O)n(CC(N)=O)c(=O)n3C)n2CC)n1	-2%	3%
CCC(C(=O)N1CCN(c2ccc(OC)cc2)CC1)n1nc(C)n2c(cc3occc32)c1=O (stereo not given)	53%[activator]	?
COc1ccc(Cn2c(C(=O)O)c(CNCc3ccc(C)o3)c3ccc(C)cc32)cc1	12%	?
Cc1cc(C)cc(Nc2nc(N3CCOCC3)nc3c2cnn3-c2ccccc2)c1	-12%	-8%
CC(C)OCC(O)Cn1c(NCc2ccccc2)nc2c1c(=O)[nH]c(=O)n2C (stereo not given)	58%[activator]	21%
Cc1ccc(NC(=O)CCc2c(C)nn(-c3ccc(N4CCCC4)nn3)c2C)cc1	0%	37%[activator]
COc1ccc(CNC(=O)CSc2nc3ccccc3nc2N2CCCC2)cc1	13%	9%
CCOC(=O)N1CCN(Cc2nc3c(c(=O)[nH]c(=O)n3C)n2Cc2ccc(F)cc2)CC1	-6%	0%
O=C(NCc1cccc(Br)c1)c1cnn(-c2ccc(F)cc2)c1-n1cccc1	10%	2%
COc1ccc(-c2c(C(F)(F)F)oc3cc(OCC#N)ccc3c2=O)cc1	-10%	42%[activator]
Cc1occc1C(=O)OCC(=O)c1sc2ccccc2c1C	15%	106%[activator]
COc1ccc(S(=O)(=O)Nc2ccc(Nc3cc(N4CCCC4)nc(C)n3)cc2)c(C)c1C	-59%	?
O=C(NCCNC(=O)c1cc2ccccc2[nH]1)C(=O)Nc1ccccc1	-10%	0%
CC1(C)CC(=O)C2=C(C1)OC(=O)CC2c1cccc2ccccc12 (stereo not given)	16%	15%
N#Cc1cccc(Oc2ccc(C3CCCCC3)cc2)c1C#N	15%	109%[activator]
COc1ccc(-c2cc(C(F)(F)F)c(C#N)c(SCC(=O)Nc3ccc(F)cc3)n2)cc1	-8%	-18%
CCC1CCC(C(=O)NC(C(=O)Nc2cccc(OC)c2)C(C)C)CC1 (stereo not given)	-2%	17%

The closing 4 compounds of the section before are carried over, then new ones follow.
structure	StopGo RLuc	2A firefly
CC1(C)CC(=O)C2=C(C1)OC(=O)CC2c1cccc2ccccc12 (stereo not given)	16%	15%
N#Cc1cccc(Oc2ccc(C3CCCCC3)cc2)c1C#N	15%	109%[activator]
COc1ccc(-c2cc(C(F)(F)F)c(C#N)c(SCC(=O)Nc3ccc(F)cc3)n2)cc1	-8%	-18%
CCC1CCC(C(=O)NC(C(=O)Nc2cccc(OC)c2)C(C)C)CC1 (stereo not given)	-2%	17%
CCOc1ccc(-c2[nH]nc3c2C(c2c(F)cccc2Cl)C(C#N)=C(N)O3)cc1OC (stereo not given)	-10%	-14%
CCC(C(=O)NCc1ccccc1OC)n1nc(C)n2c(cc3occc32)c1=O (stereo not given)	39%[activator]	-12%
O=C(CCS(=O)(=O)c1ccc2c(c1)OCCO2)Nc1cccc(F)c1	?	-24%
C=CCNC(=O)c1ccccc1NC(=O)C1CCC1	20%	17%
Clc1ccc(-c2nc(CN3CCCC3c3ccsc3)co2)cc1 (stereo not given)	1%	28%
CC1=C(c2ccc(C)c(C)c2)S(=O)(=O)N(CC(=O)NCc2ccccc2)C1=O	-1%	-1%
COc1cc(NC(=O)c2ccc(N3C(=O)C(C)CS3(=O)=O)cc2)cc(OC)c1OC (stereo not given)	16%	9%
O=C(CSc1n[nH]c(-c2ccccc2)n1)N1CCCCC1	20%	201%[activator]
COc1cc(C(=O)NCc2coc(-c3cccs3)n2)ccc1C	13%	10%
COC(=O)c1ccc(C(=O)OC)c(NC(=O)c2cnn3c(C(F)F)cc(-c4ccc(C)cc4)nc23)c1	-18%	-13%
Cc1ccc(OCc2nc(CCN(C)C(=O)c3ccccc3C(F)(F)F)no2)cc1C	13%	31%[activator]
CCOC(=O)c1cccc(NC(=O)CSc2ncc3c(n2)-c2ccccc2N(C)S3(=O)=O)c1	?	?
CCOc1ccccc1N(C)C(=O)c1cc(S(=O)(=O)NCc2ccc(C)cc2)ccc1F	103%[activator]	?
CCc1ccc(NC(=O)Cn2ccn(-c3ccc(C)c(C)c3)c(=O)c2=O)cc1	13%	107%[activator]
COc1ccccc1NC(=O)Cn1c(=O)n(-c2cccc(C(C)=O)c2)c(=O)c2c3c(sc21)CN(C(C)=O)CC3	-23%	-6%
CC(C(O)c1ccccc1)N(C)C/C=C/c1ccccc1 (stereo not given)	-13%	-23%
Cc1ccc(OCC(=O)Nc2cccc(-c3nc4ccccc4o3)c2)cc1C	-6%	10%
O=C(NCCSCc1c(F)cccc1Cl)C1CCN(S(=O)(=O)Cc2ccccc2)CC1	-10%	-12%
C[C@H]1C[C@@H]2[C@H]([C@@H](O)C[C@@]3(C)[C@H]2CC[C@]3(O)C(=O)CO)[C@@]2(C)C=CC(=O)C=C12	14%	9%
COc1ccc(C2C(C(=O)Nc3ccccc3)=C(C)Nc3nc(-c4ccccc4)nn32)cc1OC (stereo not given)	16%	8%
O=C1CC(c2ccc(Cl)cc2)N=C(NC(=O)c2ccccc2)N1 (stereo not given)	-14%	8%
CC(C)c1ccc(NC(=O)NCC(O)c2ccc(F)c(F)c2)cc1 (stereo not given)	9%	94%[activator]
CCCNC(=O)c1ccccc1NC(=O)c1nc(-c2ccccc2)oc1C	-4%	5%
CC(C)(C)c1ccc(Oc2nc3ccccn3c(=O)c2/C=C(\C#N)c2nc3ccccc3s2)cc1	4%	-6%
Cc1ccc(C)c(CN2CCN(c3nc4c(c(=O)[nH]c(=O)n4C)n3CCc3ccccc3)CC2)c1	-3%	3%

(listing goes on)
structure	StopGo RLuc	2A firefly
CN(CC(=O)Nc1ccccc1C(F)(F)F)C(=O)Cc1ccc2ccccc2c1	6%	7%
CN(C)CCCNc1oc(-c2ccccc2)nc1C#N	-2%	5%
Cc1ccc(S(=O)(=O)C/C=C/CS(=O)(=O)c2ccc(C)cc2)cc1	-13%	9%
CCC(C)NC(=O)c1ccc2c(c1)N(Cc1ccccc1F)C(=O)c1ccccc1S2=O (stereo not given)	-3%	-18%
COc1ccc(NC(=O)c2cc(-c3ccc4c(c3)OCO4)on2)c(OC)c1	-9%	-14%
CCCc1nnc(NC(=O)Cc2coc3ccc(C(C)C)cc23)s1	7%	-13%
CC(NC(=O)C(=O)Nc1ccccc1Cl)c1ccccc1 (stereo not given)	25%	2%
O=C(c1cc(-c2ccccc2)c(-c2ccccc2)s1)C(c1ccccc1)c1ccccc1	-1%	8%
COc1ccccc1CNc1nc(-c2ccco2)nn1S(=O)(=O)c1ccc(C)cc1	108%[activator]	22%
O=C(c1cccc2ccccc12)N1CCN(Cc2c[nH]c3ccccc23)CC1	1%	-9%
CC(NC(=O)C1(C#N)CCCCC1)c1ccccc1Cl (stereo not given)	-3%	-19%
N#Cc1ccc(COC(=O)c2cnccn2)cc1	-13%[1.06 µM]	12%
O=C1/C(=C\c2ccccc2F)N2CCC1CC2	-4%	22%
COC(=O)C(C)Oc1cc2oc(=O)cc(C)c2cc1Cl (stereo not given)	7%	12%
CCc1[nH]c(C(=O)N(CC)CCC(F)(F)F)c(C)c1C(=O)OC	48%[activator]	2%
Cc1c(-c2nc3ccccc3[nH]2)c(NC(=O)CC(C)C)n(CC2CCCO2)c1C (stereo not given)	-8%	-6%
C=CCOc1ccc(C(=O)NCCC2=CCCCC2)cc1	15%	62%[activator]
CCCOc1ccc(C2C(C(=O)c3cc4ccccc4o3)=C(O)C(=O)N2CCN(C)C)cc1 (stereo not given)	-7%	6%
CCc1cccc(C)c1NC(=O)CCc1ncc(-c2ccc(F)cc2F)o1	9%	85%[activator]
COc1ccc(NC(=O)Cn2ccc3cc(Cl)ccc32)c(OC)c1	34%[activator]	24%
Cc1cccc(C)c1-n1nnnc1SCC(=O)c1ccc(Br)s1	122%[activator]	-3%
Cc1ccc(C2=Nc3ccccc3N(CC(=O)Nc3cccc(F)c3)C(=O)C2)cc1C	22%	111%[activator]
COc1ccccc1OCC(=O)Nc1nn2cc(-c3ccccc3)nc2s1	1%	214%[activator]
COCCCNC(=O)c1c(NC(=O)c2nc(S(C)(=O)=O)ncc2Cl)sc2c1CCCC2	-8%	13%
Cc1ccc(-c2cc(C(=O)O)c3ccc(Br)cc3n2)cc1C	?	?

Reprinted at random: 3 records from the list, in no set order.
structure	StopGo RLuc	2A firefly
COc1ccc(-c2c(C(F)(F)F)oc3cc(OCC#N)ccc3c2=O)cc1	-10%	42%[activator]
O=C(CCS(=O)(=O)c1ccc2c(c1)OCCO2)Nc1cccc(F)c1	?	-24%
Cc1c(Cl)cccc1Nc1nn2c(=O)c3ccc(C(=O)NCCC4=CCCCC4)cc3nc2s1	-10%	42%[activator]

The listing continues.
structure	StopGo RLuc	2A firefly
CN(Cc1ccccc1)C(=O)C1CCN(S(=O)(=O)c2ccc3nc4c(c(C(=O)O)c3c2)CCCC4)CC1	-12%	?
Cc1nn(C)c2c1c(C(F)(F)F)cc(=O)n2CC(=O)Nc1ccc(F)cc1F	-20%	-17%
O=C(c1cc(=O)c2ccccc2o1)N(Cc1ccco1)C1CCS(=O)(=O)C1 (stereo not given)	9%	19%
CCN(CC)CCCn1c(-c2ccccc2)cn2c3ccccc3nc12	-23%	-16%
C=CCn1c(SCCO)nc2c1c(=O)[nH]c(=O)n2C	2%	-1%
Cc1csc(NC(=O)CCc2ncc(-c3ccccc3)o2)n1	8%	16%
Cn1nc(C(=O)Nc2ccccc2C(=O)N2CCCC2)c2ccccc2c1=O	2%	5%
O=C(CSc1nc2c(c(C(F)(F)F)n1)CCc1ccccc1-2)NC1CCCC1	11%	19%
N#C/C(=C\c1ccc(-c2cccc(Cl)c2)o1)c1nc2ccccc2[nH]1	2%	126%[activator]
Cc1cc(C)cc(NC(=S)NNC(=O)C(c2ccccc2)c2ccccc2)c1	53%[activator]	0%
Fc1ccc(OCc2nnc(-c3ccccc3)o2)cc1	24%	139%[activator]
CCOC(=O)C1=C(c2ccccc2)Nc2ncnn2C1c1ccc(Cl)cc1 (stereo not given)	?	11%
CCOC(=O)Nc1ccc2c(CN3C(=O)CCC3=O)cc(=O)oc2c1	10%	22%
COc1ccc(S(=O)(=O)NCCc2ccccc2)cc1-c1noc(C(C)(C)C)n1	86%[activator]	9%
CCNc1c(NC(=O)Nc2ccc(Br)cc2)c(=O)oc2ccccc12	-1%	24%
CC(C)(C)NC(=O)CCc1ccc(C#N)cc1	-5%	-6%
Nc1cccc(C(=O)c2ccc(F)cc2)c1	6%	57%[activator]
CCN(CC)CC(=O)NC(=O)NCCc1cccs1	4%	0%
CC(NC(=O)C1CCOCC1)c1ccc(Cl)s1 (stereo not given)	21%	0%
CCSc1nn(CC(=O)Nc2ccc(C(=O)OC)cc2)c(N)c1S(=O)(=O)c1ccc(C)cc1	103%[activator]	-6%
CC1=C/C(=N\NC(=O)c2ccc(N)cc2)CC1	-5%[1.06 µM]	0%
O=C(c1ccccc1)c1ccc2n1CCC2C(=O)Nc1cccc(F)c1 (stereo not given)	?	?
COc1ccc(C(=O)Nc2cccc(C(=O)NC3CC3)c2)cc1S(=O)(=O)NC1CC1	115%[activator]	3%
Cc1ccc2nc(-c3ccc(NC(=O)COc4c(C)ccc(C)c4C)cc3)sc2c1	-8%	139%[activator]
NC(=O)c1ccccc1NCC(=O)Nc1ccccc1C(=O)NC1CCCC1	0%	24%

Next section.
structure	StopGo RLuc	2A firefly
O=C(Cc1ccc(NC(=O)N2CCCCc3ccccc32)cc1)NCc1ccccc1Br	42%[activator]	0%
COc1cc(Cl)c(NS(=O)(=O)c2cc(-c3n[nH]c(=O)c4c3CCCC4)ccc2C)c(OC)c1	163%[activator]	-30%
CCOc1cc(C2CC(=O)Nc3cc(OC)cc(OC)c32)ccc1OC(C)C (stereo not given)	58%[activator]	-6%
COc1ccc(CN(C(=O)c2cc(Cl)cc(Cl)c2)C2CC2)c(OC)c1	70%[activator]	-4%
O=C(Nc1ccc2c(ccn2CCN2CCOCC2)c1)C1CCC1	-2%	11%
Nc1cccc(CO)c1	10%	3%
Cc1ccc(NC(=O)COc2ncnc3ccc(Br)cc23)c([N+](=O)[O-])c1	-11%	21%
Cc1ccc(-c2onc(C)c2C)cc1S(=O)(=O)NCc1cccs1	205%[activator]	14%
COc1ccc(-c2noc(-c3ccccc3NC(=O)c3cc(OC)c(OC)c(OC)c3)n2)cc1	-6%	-14%
